Source: PubChem (National Center for Advancing Translational Sciences (NCATS))
HPGD block: blocks human HPGD enzyme activity | P15428 | 4.3% of 150,000 active | Potency, µM, inactives show at the top dose activity change, negative = inhibition, most hits filed as inhibitors | purified HPGD, NADH fluorescence kinetic, PGE2 substrate; active = well fitted inhibition curve with a large enough effect (not every such curve was filed as active); inconclusive = small, poorly fitted or top-dose-only effect, or another doubt; inactive = no such curve, though single readings can be large or run the other way;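 also: top concentration of the series not given in the record; plate controls included wells without enzyme; inactives centre near -10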
Target sequence (P15428 whole entry, looked up): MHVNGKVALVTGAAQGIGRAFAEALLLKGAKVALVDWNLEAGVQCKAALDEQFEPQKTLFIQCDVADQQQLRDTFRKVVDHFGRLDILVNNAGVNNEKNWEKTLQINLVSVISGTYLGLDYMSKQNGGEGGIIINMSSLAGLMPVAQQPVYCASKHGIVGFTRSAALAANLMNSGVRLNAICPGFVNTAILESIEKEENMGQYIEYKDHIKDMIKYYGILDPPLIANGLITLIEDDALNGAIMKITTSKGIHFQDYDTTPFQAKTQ
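20 nM HPGD preincubated 15 min at room temperature with compound in 50 mM Tris-HCl pH 8, 0.01% Tween 20. Started with 1 mM NAD+ and 30 uM prostaglandin E2; NADH fluorescence (360/450 nm) read 5 times over 30-s intervals, last minus first.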
Active calls of the source: *; ? = inconclusive; & = joins results of further samples. % is scaled to controls: 0 for no effect and ±100 for the full control effect; potency is read from the fitted curve at half-maximal effect. Only part of the results is shown; count on the stated rates, not on these rows.

mol | HPGD block
CCOC(=O)/C(C#N)=C\C1=C(N2CCCC2)CC(C)(C)OC1 | -21%
O=C(CSc1nnc(-c2ccccc2)o1)Nn1cnnc1 | -9%
CCCCCCCC(=O)OCCOC(=O)CCCCCCC | -3%
O=C(N/N=C/c1ccco1)c1cccc(S(=O)(=O)Nc2ccccc2Cl)c1 | -9%
Cc1nn(S(=O)(=O)c2ccccc2)c(C)c1Sc1ccc([N+](=O)[O-])cc1 | -16%
O=C(CSc1nnc(-c2ccccc2)c(-c2ccccc2)n1)Nc1ncc(Cl)cc1Cl | ?
O=C(Cn1cc(Cl)ccc1=O)c1ccc(Cl)cc1 | -6%
N/C(=N\c1nc2ccccc2o1)NC(=O)c1ccccc1 | ?
CCOC(=O)c1c(C)[nH]c(C(=O)CSc2nnc(Nc3ccccc3F)s2)c1C | ?
O=C(CS(=O)(=O)Cc1ccccc1)N1CCc2ccccc21 | -5%
COc1ccccc1NC(=S)N/N=C/c1cccc(C)c1 | -9%
COc1ccc(C(OC(=O)c2ccco2)C(=O)NC2CCCCC2)cc1OC (centres undefined) | -7%
Cc1ccc(C(=O)Nn2c(N)c(S(=O)(=O)c3ccc(C)cc3)c3nc4ccccc4nc32)cc1 | ?
COc1cc(C=O)ccc1OCCCOc1ccccc1[N+](=O)[O-] | 20µM*
CN1CCN(CCCN2c3ccccc3Sc3ccc(Cl)cc32)CC1 | 2%&-8%&-7%&0%
COC(=O)C(C)Sc1nnc(Cc2cc(=O)[nH]c(=O)[nH]2)n1-c1ccc(OC)cc1 (centres undefined) | -1%
CC(Oc1ccccc1)C(=O)Nc1ccc(C(N)=O)cc1 (centres undefined) | -6%
CC1CC(C)CN(CCCNC(=O)CC2Oc3ccccc3NC2=O)C1 (centres undefined) | 3%
CC(C)(C)c1ccc(CN2CCN([C@H](c3ccccc3)c3ccc(Cl)cc3)CC2)cc1 | 3%
O=C(O)CNS(=O)(=O)c1ccc(-c2ccccc2)cc1 | -11%
c1c[nH]c(CN2CCN(Cc3ncc[nH]3)CC2)n1 | -7%
Cc1nc(SCc2c(F)cccc2Cl)n[nH]1 | -10%
CCC1=Nc2cc(C(=O)NCCCOC(C)C)ccc2Sc2ccccc21 | -15%
O=C(NCC1CCCO1)Nc1cccc(Cl)c1 (centres undefined) | -20%
COc1cccc(C(=O)N(Cc2ccc3c(c2)OCO3)Cc2nc3ccccc3c(=O)[nH]2)c1 | -9%
O=C(CCNC(=O)Cn1ccc2ccccc2c1=O)NCCN1CCc2ccccc2C1 | -24%
Oc1ccccc1N=Nc1nc(-c2ccccc2)c(-c2ccccc2)[nH]1 | -21%
Cn1cc(Cl)c(C(=O)NC2CCCC2)n1 | -20%
COC(=O)c1ccc2c(=O)n(-c3ccccc3)c(SCN3C(=O)c4ccccc4C3=O)nc2c1 | -11%
Cc1ccc(NCCC(=O)c2ccc(Cl)cc2)cc1 | -2%
O=C(OCC(=O)N1CCCc2ccccc21)c1ccc(Br)o1 | -11%
Cc1ccccc1NC(=S)c1nc2ccccc2[nH]1 | -8%
COc1ccccc1N1CCN(CC(=O)Nc2ccc(C)c(F)c2)CC1 | -15%
CCn1nc(C)c(NC(=O)CSc2nnc(-c3ccco3)n2C)c1C | -1%
CNC(=O)CSc1nnc(CCc2ccccc2)n1-c1ccccc1 | -19%
COc1ccc(NC(=O)Nc2ccccc2C)c(OC)c1 | -5%
Cc1cnc(CNc2nc(-c3ccc4c(c3)OCO4)nc3ccccc23)cn1 | -23%
O=C(COc1cc(Cl)ccc1Cl)Nc1ccc2c(c1)CCC2 | -6%
CN1CC=C2C(C#N)=C(N)C(C#N)(C#N)C(c3ccsc3)C2C1 (centres undefined) | ?
CCCc1nnc(SCC(=O)N2CCCCC2C)n1CC1CCCO1 (centres undefined) | -12%
CCOc1ccc(/C=C2/C(=O)N(c3ccc(OC)cc3)C(=S)N2CC(=O)OC)cc1OCC | -21%
Nc1ncnc2oc(-c3ccco3)c(-c3ccco3)c12 | ?
CC(=O)OC(Cn1ccnc1)c1ccccc1 (centres undefined) | -10%
COc1ccc(NC(=O)c2cc(S(=O)(=O)N(Cc3ccccc3)c3ccccc3)ccc2Cl)cn1 | -17%
CNC(=O)CCCc1nc(-c2ccccc2Cl)no1 | -1%
CC(/C=C/c1cccc([N+](=O)[O-])c1)=N/NC(=O)c1cccnc1 | -2%
CC(=O)NN1C(=O)c2ccc(Oc3cccc([N+](=O)[O-])c3)cc2C1=O | -9%
COc1ccc(NS(=O)(=O)c2cc(N/C(=N\S(=O)(=O)c3ccccc3)c3ccc(F)cc3)ccc2Cl)cc1 | -12%
CN(CC(=O)Nc1c(Cl)cccc1Cl)C(=O)CCCN1C(=O)c2ccccc2C1=O | -10%
CCOc1cc(NS(=O)(=O)c2ccc(NC(C)=O)cc2)c(OCC)cc1NC(=O)C(C)C | 3%
COc1ccccc1C(=O)Nc1ccc2c(c1)OCO2 | -13%
CCOC(=O)c1ccc(NC(=O)CSc2nc(C)nc3c2c(=O)n(C)c(=O)n3C)cc1 | -6%
O=C(Cc1c[nH]c2ccccc12)OCC(=O)c1ccccc1 | -10%
CCOC(=O)Cc1c(C)c2c(O)cc(O)cc2oc1=O | ?
CCOC(=O)N1CCN(S(=O)(=O)c2ccc(OC)c3ccccc23)CC1 | -10%
CCCc1sc(N/N=C/c2ccccn2)nc1-c1ccc(F)cc1 | -17%
COc1cccc(Nc2nc(-c3ccc(O)cc3)cs2)c1 | -6%
O=C(N/N=C/c1ccc(Cl)c([N+](=O)[O-])c1)c1ccc2nc[nH]c2c1 | -3%
Cc1ccc(-c2nc(CSc3nc4ccccc4c(=O)n3CCO)cs2)cc1 | -13%
CCCNC(=O)NCc1ccc(N2CCCC2=O)cc1 | -15%

(listing goes on)
mol | HPGD block
COc1ccc(/C=C2\SC(=O)N(CCNC(=O)Cc3coc4cc(OC)ccc34)C2=O)cc1 | -11%
Cn1c(=O)[nH]c(=O)c2c1nc(CN1CCN(c3ccc(F)cc3)CC1)n2CCc1ccccc1 | -11%
CC(=O)Nc1ccc(S(=O)(=O)n2nc(C)cc2C)cc1 | -10%
COc1ccc(NC(=S)NCC(O)c2ccccc2)c(OC)c1 (centres undefined) | -12%
COc1ccccc1NC(=O)Cc1noc(CN(C)Cc2cccs2)n1 | -8%
Cn1c(=O)cc(OCCCC(=O)NCCN2CCN(c3ccccc3F)CC2)c2ccccc21 | -3%
CCOC(=O)c1c(C)[nH]c(C(=O)COC(=O)c2ccc(F)c(S(=O)(=O)N3CCOCC3)c2)c1C | -12%
CCCc1nc(NCc2ccccc2)c(C#N)c2c1CCCC2 | ?
CCCCNC(=O)C(CC)Sc1nc2sc(C(=O)OC)c(C)c2c(=O)n1N (centres undefined) | ?
c1ccc(Nc2ccccc2)cc1 | -11%
O=C(OCCN1C(=O)c2cccc3c(N4CCOCC4)ccc(c23)C1=O)c1cc(Cl)cc(Cl)c1 | -10%
COC(=O)CSc1nc2ccc(NC(=O)CSc3nnnn3Cc3ccccc3)cc2s1 | ?
COc1ccc(/C=C2\SC(=O)N=C2N)cc1OC | -30%
CC1(C(=O)CSc2ncn[nH]2)CCC(=O)O1 (centres undefined) | -7%
COc1ccc(OC)c(S(=O)(=O)Nc2cc(OC)c(Cl)cc2OC)c1 | -11%
COC(=O)c1cccc(N(C(=O)CNC(=O)c2ccco2)C(C(=O)NC2CCCC2)c2ccco2)c1 (centres undefined) | -11%
COCCCNC(=O)CN(Cc1ccc(Cl)cc1)S(C)(=O)=O | -12%
Cc1nn(Cc2ccc(Cl)cc2)c(C)c1NC(=O)C(c1ccccc1)c1ccccc1 | 0%
COc1ccccc1NC(=O)CC(NCc1ccccc1)C(=O)O (centres undefined) | -10%
Cc1ccc(NCc2cccnc2)cc1 | -12%
Cc1ccc(C(=O)NC(=S)Nc2cc(C(F)(F)F)ccc2Cl)cc1 | -8%
Cc1ccc(S(=O)(=O)N2CCCN(S(=O)(=O)c3ccc(C)c(C)c3)CC2)cc1C | -1%
COc1cccc(C2=NOC(C(=O)NCc3ccccn3)C2)c1 (centres undefined) | 8%
CC1=CCC[C@@H]2[C@@](C)(CC/C(C)=C/C(=O)O)[C@H](C)CC[C@@]12C | ?
COc1cc(C2=NOC(C(=O)NCc3ccco3)C2)cc(OC)c1OC (centres undefined) | -2%
COc1ccc(NS(=O)(=O)c2ccc(NC(=S)NC(=O)c3cccc(F)c3)cc2)nn1 | -21%
Cc1nn(-c2ccccc2)c2sc(C(=O)N(CC(=O)NC(C)(C)C)Cc3ccco3)cc12 | -28%
O=[N+]([O-])c1ccc(O)c(/C=N/Nc2ccccn2)c1 | -9%
CCCCOC(=O)CSc1nnc(N)s1 | 4%
COc1ccc2oc(-c3cccc(NC(=O)CSc4ccc(Cl)cc4)c3)nc2c1 | ?
Cc1ccc(C(=O)NC(=S)N2CC(C)OC(C)C2)cc1[N+](=O)[O-] (centres undefined) | 4%
Cc1ccc(S(=O)(=O)c2c(C)nn(C(C)(C)C)c2OC(=O)c2cccs2)cc1 | -11%
CC(NC(=O)C1CC12CCC2)c1ccccc1 (centres undefined) | ?
COc1cccc(C(=O)/C=C/Nc2ccc(S(=O)(=O)Nc3ncccn3)cc2)c1 | -19%
COc1cc(NC(=O)COc2ccc(-n3cnnn3)cc2)c(OC)cc1Cl | -7%
CC(=O)c1cccc(NS(=O)(=O)c2ccc(N/C=C/C(=O)c3ccc(F)cc3)cc2)c1 | ?
COc1cccc([C@@H]2Oc3ccc(OC)cc3[C@H](O)[C@H]2O)c1 | -4%
CC1(C)C(=O)Nc2ccccc2N1C(=O)CN1C(=O)c2ccccc2C1=O | -4%
Cc1sc(NC(=S)NC(=O)c2ccc(C(C)(C)C)cc2)c(C#N)c1C | -15%
Cc1ccc(S(=O)(=O)NCC(=O)N(CCc2ccccc2)CC(=O)NCc2ccco2)cc1 | -6%
O=C(Nc1cccc(CCc2ccccn2)c1)c1cc(F)c(F)cc1Cl | -9%
CN(Cc1ccccc1)C(=O)CCSc1nc(-c2ccc3c(c2)OCO3)cc(C(F)(F)F)n1 | ?
COc1cccc(OC)c1C(=O)Nc1ccc(S(=O)(=O)Nc2cc(C)nc(C)n2)cc1 | -6%
COc1ccc(CNc2nc3ccccc3n2CCN2CCOCC2)cc1 | 1%
Cc1cccc(N2CCN(c3ccc(N4C(=O)CCCC4=O)cc3[N+](=O)[O-])CC2C)c1 (centres undefined) | -23%
Clc1ccc(SCCCCN2CCNCC2)cc1 | -3%
CCN(CC)CCCNC(=O)Cn1cc2c(n1)CCC(C)C2 (centres undefined) | -9%
O=C(Nc1ccc(-c2nc3ccccc3[nH]2)cc1)c1ccc(N2C(=O)CCC2=O)cc1 | ?
NS(=O)(=O)c1cc2c(cc1Cl)NC(C1CC3C=CC1C3)NS2(=O)=O (centres undefined) | -24%
Brc1ccc(CSc2ncn[nH]2)cc1 | -5%
CN(C)c1ccc(C(=O)c2ccccc2C(=O)O)c(O)c1 | -21%
CC(=O)Nc1nc(CC(=O)c2ccccc2)cs1 | -12%
COc1ccc(-n2nnnc2SCC(=O)N2CCCc3ccccc32)cc1OC | -15%
COc1cc(SC)ccc1C(=O)Nc1ccon1 | -23%
COc1ccccc1C(=O)Nc1ncc2c(n1)CC(c1ccco1)CC2=O (centres undefined) | -6%
O=C(CSc1nnc(CCc2nc3ccccc3[nH]2)n1-c1ccccc1)NCc1ccccc1 | -3%
CCNC(=O)c1ccccc1NC(=O)c1cccc(S(=O)(=O)N2CCC(C)CC2)c1 | -21%
COc1ccc(Br)cc1C(=O)O | -3%
Cc1cc(-n2c(SCC(=O)NCc3cccs3)nc3n[nH]c(C)c3c2=N)ccc1Cl | -7%
Cc1nc(/N=C(\N)NC(=O)N2c3ccccc3Sc3ccccc32)nc2ccccc12 | -14%

(further entries)
mol | HPGD block
O=C/C(=C\Nc1ccccn1)c1nc2ccccc2o1 | ?
COc1ccc(/C=N/c2oc(-c3ccccc3)cc2C#N)cc1OC | ?
COc1ccccc1-c1cc(N)n[nH]1 | -22%
C=CCSc1nnc(-c2ccccc2NC(C)=O)c(=O)[nH]1 | -27%
CCOc1cccc(-c2csc(C3COc4ccccc4O3)n2)c1 (centres undefined) | -2%
Cc1ccc(S(=O)(=O)N2CCN(C(=O)CSc3nnnn3C)C2)cc1 | 0%
CC(C)C[C@@H](CC(=O)N[C@@H](CCCN)CC(=O)N[C@@H]1CCCC[C@H]1C(=O)N[C@H](CC(=O)N[C@@H](CCC(=O)O)CC(=O)O)CC(C)C)NC(=O)[C@@H]1CCCC[C@H]1N | -9%
Cc1cc(C)cc(Nc2nc3c(S(=O)(=O)c4ccccc4)nnn3c3ccccc23)c1 | ?
